Screening data: PubChem BioAssay, Broad Institute
Tgondii IFNg: T. gondii growth inhibition with IFN-gamma, primary screen, cell-based | Toxoplasma gondii growth in IFN-gamma-treated host cells; active compounds read low; reference of the scale not given here | activity change, negative = inhibition, %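 (about 20 µM by stock and volumes)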 | actives 3.8% (n = 69,000) | AID 1259416, 2018;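 active = below -70%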;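 also: host cells are HeLa cells infected with Toxoplasma gondii; parasite growth read as luciferase light; one replicate is shown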
Starred values were filed as active, the others as inactive; i = inactive; & = joins results of further samples; ! = not confirmed by another sample. A portion of the library; count on the stated rates, not on these rows.

SMILES	Tgondii IFNg
CC(=O)OC1CCC2(C)C(=CCC3C2CCC2(C)C(OC(=O)c4ccccc4)CCC32)C1 (configuration not stated)	18
CS(=O)(=O)Nc1ccc(Cc2noc(-c3ccc4[nH]cc(CCN)c4c3)n2)cc1	-1
COc1ccccc1NC(=O)c1c(O)c2cccnc2n(Cc2ccccc2)c1=O	47
Cc1ccc(CN2C[C@@H]3OCCN(Cc4c(C)noc4C)[C@H]3C2)s1	-8
O=C(Nc1ccc2c(c1)OCCO2)c1cc2cccnc2n(Cc2ccc(F)cc2)c1=O	i
CC12CN3CC(c4ccccc4)(CN(C1)C31CCCCC1)C2=O	-3
c1cnc(NC2COC3(CCNC3)C2)cn1 (configuration not stated)	14
Cc1nc(CN2CCN(CC3CC3)c3ncccc3C2)cs1	-8
COc1cc(C2=NC(O)C(=O)Nc3ccc(Cl)cc32)ccc1O (configuration not stated)	98
CC(=O)Nc1ccc(NC(=O)c2cc3cccnc3n(Cc3ccccc3F)c2=O)cc1	83
COc1ccc2c(c1)C1(CCN(C(=O)c3ccc(Oc4ccccc4)cc3)CC1)CC2CC(=O)O (configuration not stated)	-20
CCc1nn2c(=O)cc(CN3CCCC4(CNC(=O)O4)C3)nc2s1 (configuration not stated)	-3
C[C@]12COC(=O)C[C@@H]1CC[C@@H]1[C@@H]2CC[C@@]2(C)[C@H]1CC[C@]2(C)O	12
c1cnc2c(c1)CN(CC1CCOCC1)CCN2CC1CC1	52
CN(Cc1ccccc1)[C@@H]1CC2CCC1N2 (some centres not stated)	88
CN(Cc1ccccn1)C(=O)C1C2CCC1CN(CC(=O)O)C2 (configuration not stated)	-27
O=C(NCCCN1CCCC1=O)c1cc2cccnc2n(Cc2ccc(F)cc2)c1=O	-9
COCCNC(=O)c1cc2cccnc2n(Cc2ccccc2)c1=O	18
c1cncc(N2CCOCC3(CCCN(Cc4ccoc4)C3)C2)c1 (configuration not stated)	-26
COCc1cncc2c1CCN(Cc1ccncc1)C2	-40

Reformatted: 2 of the compounds above
SMILES,Tgondii IFNg
c1cncc(N2CCOCC3(CCCN(Cc4ccoc4)C3)C2)c1 (configuration not stated),-26
COCc1cncc2c1CCN(Cc1ccncc1)C2,-40

Later entries
SMILES	Tgondii IFNg
COc1ccccc1CCC(=O)N1C2CCC1c1cn(C)nc1C2 (configuration not stated)	3
CNC(=O)[C@H]1CC2CN(C(=O)Cc3cccs3)CC2N1C (some centres not stated)	-9
CCCOC1CCCN(C2CCN(C)CC2)C1 (configuration not stated)	8
COC(=O)C1(CC(=O)N2CCOCC2)C(=O)CC2CCC1N2Cc1ccc(F)cc1 (configuration not stated)	14
CCN1CCOCC2(CCCN(C(=O)c3ccc(C)nc3)C2)C1 (configuration not stated)	8
C=CCOCc1cncc2c1CCN(Cc1cnn(C)c1)C2	-10
CC(NC(=O)c1cc2cccnc2n(Cc2ccccc2F)c1=O)c1ccccc1 (configuration not stated)	18
O[C@H]1C[C@@H]2CN(Cc3cccn3-c3ccc(Cl)cn3)C[C@@H]2C[C@@H]1O	6
C[C@H]1C[C@@H](O)[C@]2(O)[C@@]13CC(=O)OC[C@@]2(C)[C@](C)(O)C(=O)C3	8
CN1CC[C@@H]2C(=O)N(c3ccccc3)CCO[C@@H]2C1	i
COC(=O)/C=C/C(=O)N[C@@H]1CC[C@@]2(O)[C@H]3Cc4ccc(O)c5c4[C@@]2(CCN3CC2CC2)[C@H]1O5	25
O=C(NCc1cccs1)c1cc2cccnc2n(Cc2ccc(Cl)cc2)c1=O	51
c1nc2c(c(N3CCN4CCCC4C3)n1)CCNC2 (configuration not stated)	-55
COc1cccc(CCNC(=O)c2cc3cccnc3n(Cc3ccccc3)c2=O)c1	-23
C[C@@H]1CN([C@H](C)CO)C(=O)CCCn2nncc2CO[C@@H]1CN(C)C(=O)Oc1cccc2ccccc12	92
COc1ccc(CNC(=O)c2cc3cccnc3n(Cc3ccccc3)c2=O)cc1	-74*
COc1ccc(C)cc1NC(=O)c1c(O)c2cccnc2n(Cc2ccccc2)c1=O	45
COCCN1CC[C@@H]2C[C@H](C(=O)Nc3cccnc3)O[C@@H]2C1	-45
CC(C)NC(C)C(=O)c1ccc2ccccc2c1 (configuration not stated)	8
CC(=O)Nc1ccc(CN(C)C(C)Cc2ccccn2)cc1 (configuration not stated)	-5

A stretch from further up, for reference:
SMILES	Tgondii IFNg
COc1ccccc1CCC(=O)N1C2CCC1c1cn(C)nc1C2 (configuration not stated)	3
CNC(=O)[C@H]1CC2CN(C(=O)Cc3cccs3)CC2N1C (some centres not stated)	-9

18 structures out of the list, arranged by heavy-atom count, lowest first.
SMILES	Tgondii IFNg
c1cnc(NC2COC3(CCNC3)C2)cn1 (configuration not stated)	14
CCCOC1CCCN(C2CCN(C)CC2)C1 (configuration not stated)	8
CC(C)NC(C)C(=O)c1ccc2ccccc2c1 (configuration not stated)	8
c1nc2c(c(N3CCN4CCCC4C3)n1)CCNC2 (configuration not stated)	-55
COCc1cncc2c1CCN(Cc1ccncc1)C2	-40
C[C@H]1C[C@@H](O)[C@]2(O)[C@@]13CC(=O)OC[C@@]2(C)[C@](C)(O)C(=O)C3	8
c1cnc2c(c1)CN(CC1CCOCC1)CCN2CC1CC1	52
COc1cc(C2=NC(O)C(=O)Nc3ccc(Cl)cc32)ccc1O (configuration not stated)	98
c1cncc(N2CCOCC3(CCCN(Cc4ccoc4)C3)C2)c1 (configuration not stated)	-26
COCCNC(=O)c1cc2cccnc2n(Cc2ccccc2)c1=O	18
O=C(NCc1cccs1)c1cc2cccnc2n(Cc2ccc(Cl)cc2)c1=O	51
CS(=O)(=O)Nc1ccc(Cc2noc(-c3ccc4[nH]cc(CCN)c4c3)n2)cc1	-1
COC(=O)C1(CC(=O)N2CCOCC2)C(=O)CC2CCC1N2Cc1ccc(F)cc1 (configuration not stated)	14
O=C(NCCCN1CCCC1=O)c1cc2cccnc2n(Cc2ccc(F)cc2)c1=O	-9
CC(=O)OC1CCC2(C)C(=CCC3C2CCC2(C)C(OC(=O)c4ccccc4)CCC32)C1 (configuration not stated)	18
COC(=O)/C=C/C(=O)N[C@@H]1CC[C@@]2(O)[C@H]3Cc4ccc(O)c5c4[C@@]2(CCN3CC2CC2)[C@H]1O5	25
COc1ccc2c(c1)C1(CCN(C(=O)c3ccc(Oc4ccccc4)cc3)CC1)CC2CC(=O)O (configuration not stated)	-20
C[C@@H]1CN([C@H](C)CO)C(=O)CCCn2nncc2CO[C@@H]1CN(C)C(=O)Oc1cccc2ccccc12	92

Carrying on:
SMILES	Tgondii IFNg
CCOCC12CCCOC1CCN(CC1CC1)C2 (configuration not stated)	29
Cc1ccc(F)cc1NC(=O)c1c(O)c2cccnc2n(Cc2ccccc2)c1=O	68
CCN1C(=O)C2(CCN(Cc3ccco3)CC2)c2ccccc21	-8
CCc1cnc(C)nc1N1CCC2(CC1)CN(C)CCN2C	-5
O=C(Nc1cccc(C(F)(F)F)c1)c1cc2cccnc2n(Cc2ccc(Cl)cc2)c1=O	9
CCCN1CC[C@@H]2C[C@H](C(=O)Nc3cccnc3C)O[C@@H]2C1	33
CC(=O)O[C@@H]1C[C@@]2(C)[C@H](c3ccoc3)C[C@H]3O[C@]32[C@]2(C)C(=O)C(=O)C3C(C)(C)C(=O)C=C[C@]3(C)C12 (some centres not stated)	-83*
O=[N+]([O-])c1ccc([As](=O)(O)O)cc1	20
CC(C)(C)NC(=O)c1cc2cccnc2n(Cc2ccccc2)c1=O	-19
O=C(NC1CCCCCC1)c1cc2cccnc2n(Cc2ccccc2)c1=O	-51
CCOC(=O)c1ncc2[nH]c3ccc(OCc4ccccc4)cc3c2c1COC	12&10
CC(C)(C)OC(=O)N1CCC(C(=O)O)(c2ccccc2)CC1	13
C#CCN1C(C)=C(C(=O)CCO)C(c2cccc(-n3oo3)c2)C(C(=O)OC)=C1C (configuration not stated)	23
O=C(Nc1cccc(C(F)(F)F)c1)c1cc2cccnc2n(Cc2ccccc2F)c1=O	-19
O=C(Nc1cccc(F)c1)c1cc2cccnc2n(Cc2ccc(Cl)cc2)c1=O	13
CCN1CCN(C)C2(CCN(c3cccnc3)CC2)C1=O	-26
Cc1noc(C)c1CN1CC2CC(C(=O)NCC(C)C)C(C1)O2 (configuration not stated)	2
C=CCN1C[C@H](C)N([C@H](c2ccc(C(=O)N(CC)CC)cc2)c2cccc(O)c2)C[C@H]1C	16&13
Cc1nc([C@H]2C[C@@H]3CCN(Cc4c(C)noc4C)C[C@@H]3O2)n[nH]1	4
C=CCOCc1cncc2c1CCN(Cc1csc(C)n1)C2	-7
CCN(CC)[C@H]1CN(C(=O)Cc2ccccn2)C[C@H]2CCCO[C@H]21	14
O=C(Nc1ccc(F)c(Cl)c1)c1cc2cccnc2n(Cc2ccc(F)cc2)c1=O	-2
CN(C)Cc1cncc2c1CCN(S(=O)(=O)c1cccs1)C2	38
Cn1cc(N2CCC3(CCN(Cc4ccncc4)C3)C2=O)cn1 (configuration not stated)	-64
Cc1noc(C)c1CN1CCC2(CC1)C(=O)N(c1ccoc1)c1ccccc12	-4
C[C@@H](N)Cc1cnc[nH]1	22
O=C1NCCN2CCN(C3CCN(Cc4cccnc4)CC3)CC12 (configuration not stated)	3
Cc1[nH]c(=O)[nH]c(=O)c1CC(=O)N1CCCCC1CN1CCCCC1 (configuration not stated)	53
OC1(c2ccc(F)cc2)CCCC2CNCC21 (configuration not stated)	-1
COc1ccccc1[C@H]1CN(c2nccnc2C)[C@@H]2C3CCN(CC3)[C@H]12	6
CN1CCO[C@H]2CN(S(=O)(=O)c3cccnc3)C[C@@H]2C1	5
COc1ccccc1CN1CCCCC1c1cccnc1 (configuration not stated)	1
CC1(C)CC2(CCO1)NCCN1C(=O)CSC12 (configuration not stated)	13
CC(C)(C)OC(=O)NC1CCN(C(=O)c2ccc(Cl)cc2Cl)CC1	-38
CCOc1ccc(C2NCCc3[nH]cnc32)cn1 (configuration not stated)	4
CCN1C[C@]2(COC)CCC(OC)[C@@]34C5C[C@]6(O)[C@H](OC(=O)c7ccc(OC)cc7)C5[C@@](OC(C)=O)(C[C@H]6OC)[C@@H]([C@H](OC)C23)[C@@H]14 (some centres not stated)	3
C=CCN1CC[C@@H]2OCC[C@]2(C(=O)NCCc2ccccn2)C1	-14
O=C(NCC1CCC2(CCNCC2)O1)C1CC1 (configuration not stated)	-65
C=CCN1CCN(C(C)C)C(=O)C12CCN(c1ncc(F)cn1)C2 (configuration not stated)	57
COc1ccc2c(c1)C1(CCN(C(=O)c3ccc(F)c4ccccc34)CC1)CC2CC(=O)O (configuration not stated)	-13
Cc1cccc2nc(CNC(=O)C3CC4(CCNCC4)CN3)cn12 (configuration not stated)	5
NCc1cccnc1	21
CC1Cc2cc(C(O)CN3CC=C(c4ccc(Cl)cc4)CC3)ccc2N1S(C)(=O)=O (configuration not stated)	76
NCC1[C@H]2CN(Cc3ccc(F)cc3)C[C@@H]12 (some centres not stated)	-14
N#CC1CC2CC1N(Cc1ccccc1)C2 (configuration not stated)	30
CC(Cc1cnccn1)NCC(=O)Nc1cnccn1 (configuration not stated)	60
C/C=C/c1ccc([C@@H]2[C@@H](CO)N3CCCCN(C(=O)Cc4cccnc4)C[C@H]23)cc1	12
N#Cc1cccc(NC2COC3(CCCN(CC(=O)O)C3)C2)n1 (configuration not stated)	59
O=C(NCc1ccc2c(c1)OCO2)c1cc2cccnc2n(Cc2ccc(Cl)cc2)c1=O	9
CS(=O)CCCCN=C=S (configuration not stated)	10
CCC(=O)N1[C@@H]2Cn3c(ccc(C4=CCCC4)c3=O)[C@H]1[C@@H](C(=O)OC)[C@@H]2CO	18
CO[C@H]1CN(CC2CC2)[C@H]2CCCO[C@@H]12	35
CCOC(=O)c1ncn2c1[C@@H]1CCCN1C(=O)c1cc(OC)ccc1-2	10
CCOC(=O)c1ccc(NC(=O)c2cc3cccnc3n(Cc3ccccc3)c2=O)cc1	13
O=C1NCCN2CCCC12 (configuration not stated)	7
CCOCCCNC(=O)c1cc2cccnc2n(Cc2ccccc2)c1=O	15
c1cncc(CN2CCC3OCCCC3(COCC3CC3)C2)c1 (configuration not stated)	61
CCOC(=O)c1ncn2c1CN(C)C(=O)c1cc(N=[N+]=[N-])ccc1-2	9&17
O=C(O)CN1CCC2(CC(c3ncccc3F)CO2)C1 (configuration not stated)	12
Cn1cc(CN2C[C@H]3COC[C@@]3(COc3ncccc3F)C2)cn1	-1

Additional entries follow.
SMILES	Tgondii IFNg
O=C(NCc1ccco1)c1c(O)c2cccnc2n(Cc2ccccc2)c1=O	-99*
O=c1oc2ccccc2c(O)c1C1c2ncccc2-c2c1c(=O)oc1ccccc21 (configuration not stated)	-7
O=[N+]([O-])c1ccc(O)c([N+](=O)[O-])c1	-79*!
CCN1CCC2(CCCN(c3nncs3)C2)C1 (configuration not stated)	46
Cn1ccc(CN2CCCC3(CC(Oc4cccnc4)CO3)C2)n1 (configuration not stated)	i
c1cc(CN2CCOCC3(CCNCC3)C2)ccn1	81
COc1ccc(CN2C[C@H]3OCCN(c4ncccn4)[C@H]3C2)cc1	-30
CN1CCC2(CCN(Cc3ccncc3Cl)CC2)C1	2
Cc1ccc(-c2cc(C(=O)N3C[C@H]4C[C@@H](C3)c3cccc(=O)n3C4)n[nH]2)o1	2
O=C(Nc1cccc(C(F)(F)F)c1)c1cc2cccnc2n(Cc2ccc(F)cc2)c1=O	44
CC(C)c1ccc(NC(=O)c2cc3cccnc3n(Cc3ccccc3)c2=O)cc1	150
CN1C[C@H]2COC[C@H](CC(=O)Nc3cccnc3)[C@H]2C1	-10
c1ccc(COC2CC3CN(Cc4cccs4)CCN3C2)nc1 (configuration not stated)	-5
COc1ccccc1NC(=O)c1cc2cccnc2n(Cc2ccc(Cl)cc2)c1=O	35
O=C(Nc1cccc(Cl)c1)c1cc2cccnc2n(Cc2ccc(F)cc2)c1=O	52
C=CCN1CCN(Cc2nccn2C)Cc2cccnc21	-6
C/C=C/c1ccc(C2[C@@H]3CN(Cc4ccccn4)C[C@H]2N3)cc1 (some centres not stated)	5
CC(=O)Nc1ccc(NC(=O)c2cc3cccnc3n(Cc3ccc(Cl)cc3)c2=O)cc1	61
